Assay outcomes from PubChem.
HSV augment = HSV replication enhancement; HSV replication augmentation in cells, fold increase; maximum fold increase; 220,000 tested, 0.005% active;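 active means peak rise of 1.5-fold or more in the series; tested in PC3 cells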;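 further: first round at 10 µM; read as green reporter fluorescence; hits show the peak of a series up to 25 µM; 1 = signal of infected wells without compound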
Insulin prom inh = TRM-6 insulin promoter activity inhibition. TRM-6 cells (human fetal islet line), insulin promoter-eGFP reporter, imaging; reporter expression induced with tamoxifen. inhibition, % at 2 µM. AID 1273. 130,000 tested, 0.9% active;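 active means inhibition above the mean plus 3 SD, with well images judged a real hit on visual review, cut at about 60% in these data, passing the limit was not always enough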
RGS16-Gao HTS = modulates binding between human RGS16 and Galphao; bead-based flow cytometry RGS16-Galphao binding, fluorescence; actives lie on both sides; binding response (% of control), % at 10 µM; 220,000 tested, 0.38% active;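 active means below 25% or above 175%, edge rows of some plates excepted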;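 further: Galphao activated by GDP with aluminum fluoride before binding; 100% = wells without compound and 0% = beads without RGS; some results beyond the cut were filed as inactive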
Target sequence (O15492 whole entry, looked up): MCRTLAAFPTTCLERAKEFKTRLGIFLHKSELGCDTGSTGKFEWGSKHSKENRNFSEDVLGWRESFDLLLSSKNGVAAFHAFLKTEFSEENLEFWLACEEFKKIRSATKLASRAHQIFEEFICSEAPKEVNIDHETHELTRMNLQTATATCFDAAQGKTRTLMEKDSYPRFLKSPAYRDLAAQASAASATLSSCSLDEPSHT
Target sequence (P09471 whole entry, looked up): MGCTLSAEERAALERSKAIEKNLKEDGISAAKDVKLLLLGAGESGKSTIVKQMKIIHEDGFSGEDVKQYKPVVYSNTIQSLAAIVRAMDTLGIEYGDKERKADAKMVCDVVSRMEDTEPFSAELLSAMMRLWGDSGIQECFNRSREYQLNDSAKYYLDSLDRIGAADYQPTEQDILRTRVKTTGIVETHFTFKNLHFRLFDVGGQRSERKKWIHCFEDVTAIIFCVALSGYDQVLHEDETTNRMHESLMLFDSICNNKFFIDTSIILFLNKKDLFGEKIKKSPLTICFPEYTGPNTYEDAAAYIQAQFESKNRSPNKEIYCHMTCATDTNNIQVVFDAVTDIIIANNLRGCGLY
PKD1 kinase inh = inhibitors of human PKD1 kinase | 200,000 tested, 0.056% active | inhibition, %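 (about 10 µM by stock and volumes)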 | AID 797 | PKD1 kinase fluorescence polarization assay;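 active means inhibition of 50% or more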;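 further: controls were vehicle for no effect and a reference inhibitor for full effect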
GALR2 ag = activates the human galanin receptor 2. activation, %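 (tested at 5 µM)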. 140,000 tested, 0.48% active. AID 803. GALR2-expressing cells, agonist activation read-out;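 active means above mean plus 3 SD of all compounds, about 5% in these data, not always enough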;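 further: 0% = vehicle buffer wells and 100% = reference agonist at full effect; tested in CHO reporter cells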
Target sequence (O43603 whole entry, looked up): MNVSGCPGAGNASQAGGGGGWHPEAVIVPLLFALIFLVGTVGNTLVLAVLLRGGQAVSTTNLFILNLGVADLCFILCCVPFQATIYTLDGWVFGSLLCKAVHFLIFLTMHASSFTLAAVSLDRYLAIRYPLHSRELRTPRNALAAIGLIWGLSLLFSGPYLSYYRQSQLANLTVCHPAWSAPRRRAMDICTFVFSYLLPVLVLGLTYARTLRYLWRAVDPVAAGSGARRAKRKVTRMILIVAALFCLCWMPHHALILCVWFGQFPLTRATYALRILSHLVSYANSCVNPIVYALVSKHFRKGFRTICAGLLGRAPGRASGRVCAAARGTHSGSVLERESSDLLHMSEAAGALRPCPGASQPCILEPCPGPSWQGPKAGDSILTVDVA
Insulin prom inh cell count = further read-out of Insulin prom inh, marked with its call; normalized cell count, %; measured here: cell count, toxicity; reference of the scale not given here;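 cells exposed to compound for 48 h; stained nuclei by imaging scaled within each plate; lower means fewer cells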
HSV augment primary fold = further read-out of HSV augment, marked with its call; fold increase; compound at 10 µM; measured here: primary screen fold increase 10 uM; tested in PC3 cells;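 GFP signal in the first replicate; 1 = infected wells without compound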
* marks the source's active call; other numbers are inactive results; i = inactive; x = no result given.

A first look (14 entries):
item	Structure	HSV augment	PKD1 kinase inh	GALR2 ag	HSV augment primary fold	Insulin prom inh cell count	RGS16-Gao HTS	Insulin prom inh
1	CCOC(=O)C(C)n1nc(/C=C/c2ccccc2)ccc1=O (centres undefined)	i	-2	-2.0	0.87	101	100	0
2	COc1ccc(N2CCN(Cc3nc4c(c(=O)[nH]c(=O)n4C)n3Cc3cccc(Cl)c3)CC2)cc1	i	x	x	0.79	x	95	x
3	C=CCNC(=S)NNC(=O)c1ccc(OCC(C)C)cc1	i	-7	-3.0	1	127	100	29
4	Cc1cc(-c2nnc3n2N=C(C(C)(C)C)CS3)n[nH]1	i	8	-2.0	0.99	x	108	x
5	O=C(c1ccc(Cl)c(S(=O)(=O)N2CCCC2)c1)N1CCN(c2ncccn2)CC1	i	-9	x	0.87	x	95	x
6	O=C1C(=O)N(CCN2CCOCC2)C(c2cccnc2)/C1=C(/O)c1ccc(Cl)cc1 (centres undefined)	i	5	x	1	x	105	x
7	CC1=CCC2C(=O)N(c3ccc(C)c(Br)c3)C(=O)C2C1 (centres undefined)	i	-12	-2.1	1.1	x	81	x
8	Cn1nc(-c2ccccc2)cc1NC(=O)Nc1ccc(F)cc1	i	x	x	0.94	x	101	x
9	O=C(c1ccc(Br)s1)N1CCN(c2ncccn2)CC1	i	-12	-1.4	1	145	101	19
10	COc1ccccc1/C=N/NC(=O)c1ccc(NC(=O)c2ccccc2Br)cc1	i	8	-0.8	0.86	x	113	x
11	O=C(O)CSCC(=O)NC1CCCc2ccccc21 (centres undefined)	i	x	x	1.1	x	100	x
12	O=C(CCN1C(=O)CSC1=O)Nc1ccccc1	i	-9	-1.6	0.55	x	104	x
13	Cn1c(=O)c2c(ncn2CC(O)CO)n(C)c1=O (centres undefined)	i	7	-1.1	0.94	121	98	-9
14	CCOc1nnc(C)c2c(C)n(-c3cccc(OC)c3)nc12	i	-5	-1.3	0.87	100	105	7

This part in full, from the start:
item	Structure	HSV augment	PKD1 kinase inh	GALR2 ag	HSV augment primary fold	Insulin prom inh cell count	RGS16-Gao HTS	Insulin prom inh
1	CCOC(=O)C(C)n1nc(/C=C/c2ccccc2)ccc1=O (centres undefined)	i	-2	-2.0	0.87	101	100	0
2	COc1ccc(N2CCN(Cc3nc4c(c(=O)[nH]c(=O)n4C)n3Cc3cccc(Cl)c3)CC2)cc1	i	x	x	0.79	x	95	x
3	C=CCNC(=S)NNC(=O)c1ccc(OCC(C)C)cc1	i	-7	-3.0	1	127	100	29
4	Cc1cc(-c2nnc3n2N=C(C(C)(C)C)CS3)n[nH]1	i	8	-2.0	0.99	x	108	x
5	O=C(c1ccc(Cl)c(S(=O)(=O)N2CCCC2)c1)N1CCN(c2ncccn2)CC1	i	-9	x	0.87	x	95	x
6	O=C1C(=O)N(CCN2CCOCC2)C(c2cccnc2)/C1=C(/O)c1ccc(Cl)cc1 (centres undefined)	i	5	x	1	x	105	x
7	CC1=CCC2C(=O)N(c3ccc(C)c(Br)c3)C(=O)C2C1 (centres undefined)	i	-12	-2.1	1.1	x	81	x
8	Cn1nc(-c2ccccc2)cc1NC(=O)Nc1ccc(F)cc1	i	x	x	0.94	x	101	x

item	Structure	HSV augment	PKD1 kinase inh	GALR2 ag	HSV augment primary fold	Insulin prom inh cell count	RGS16-Gao HTS	Insulin prom inh
9	O=C(c1ccc(Br)s1)N1CCN(c2ncccn2)CC1	i	-12	-1.4	1	145	101	19
10	COc1ccccc1/C=N/NC(=O)c1ccc(NC(=O)c2ccccc2Br)cc1	i	8	-0.8	0.86	x	113	x
11	O=C(O)CSCC(=O)NC1CCCc2ccccc21 (centres undefined)	i	x	x	1.1	x	100	x
12	O=C(CCN1C(=O)CSC1=O)Nc1ccccc1	i	-9	-1.6	0.55	x	104	x
13	Cn1c(=O)c2c(ncn2CC(O)CO)n(C)c1=O (centres undefined)	i	7	-1.1	0.94	121	98	-9
14	CCOc1nnc(C)c2c(C)n(-c3cccc(OC)c3)nc12	i	-5	-1.3	0.87	100	105	7
15	O=C(CN1CCOCC1)Nc1ncc(Cc2cccc(Cl)c2)s1	i	5	0.3	0.96	145	105	0
16	N[C@@H](CO)c1nnc([C@H](CC(=O)O)NC(=O)C2CCNCC2)o1	i	2	x	1.1	x	99	x

item	Structure	HSV augment	PKD1 kinase inh	GALR2 ag	HSV augment primary fold	Insulin prom inh cell count	RGS16-Gao HTS	Insulin prom inh
17	Cc1ccc2cc3cc(C(=O)NCc4ccc5c(c4)OCO5)oc3nc2c1	x	8	-2.3	x	137	97	23
18	CC1(C)SC2[C@H](NC(=O)C(NC(=O)N3CCNC3=O)c3ccccc3)C(=O)N2C1C(=O)O (some centres undefined)	x	0	-1.7	x	108	90	-10
19	CCCNC(=O)N1CCC(C(=O)c2ccc(Cl)cc2)CC1	i	-3	-0.3	0.92	54	102	29
20	N#Cc1cccc(NC(=O)Cn2c3[n+](c4ccc(C(F)(F)F)cc42)CCCCC3)c1	i	1	-0.8	0.95	x	92	x
21	Cc1sc2nc(SCC(=O)N(C)C)[nH]c(=O)c2c1C	i	-8	-2.2	0.96	84	98	-350
22	O=C1NCCCC1C(=O)N/N=C/c1ccccc1 (centres undefined)	i	5	-1.2	0.82	126	97	-23
23	C=CCNC(=S)NNC(=O)c1ccc([N+](=O)[O-])cc1	i	-2	x	0.96	x	100	x
24	COc1cc(NS(=O)(=O)c2ccccc2)ccc1-n1nc(C)cc1C	i	-1	-4.5	0.96	183	92	-29

item	Structure	HSV augment	PKD1 kinase inh	GALR2 ag	HSV augment primary fold	Insulin prom inh cell count	RGS16-Gao HTS	Insulin prom inh
25	COc1cccc(Cn2c(-c3cccs3)noc2=O)c1	i	0	0.6	1.2	x	109	x
26	Cc1ccc2cc(C(c3nnnn3Cc3ccccc3)N3CCN(c4ccccc4)CC3)c(=O)[nH]c2c1 (centres undefined)	i	0	0.6	0.92	86	95	-121
27	O=C(CCCn1cnc([N+](=O)[O-])n1)Nc1cc(Cl)ccc1O	i	2	x	0.88	x	106	x
28	COc1ccc(NC(=O)CN2C(=O)CSC(C)C2=O)c(OC)c1 (centres undefined)	i	-8	-1.0	1.2	x	100	x
29	CCCC(C)NC(=O)c1sc2nc3n(c(=O)c2c1C)CCC3 (centres undefined)	i	-6	x	1	x	101	x
30	COc1ccc(C(=O)Nc2ccc(Cl)cc2C(=O)NCCO)cc1	i	-6	-1.8	0.64	103	102	-115
31	Cc1ccc(NC(=S)/N=C(\N)Nc2nc(C)c3cc(C)ccc3n2)c(C)c1	i	-13	-1.1	0.69	x	106	x
32	CCn1c(SCC(=O)c2ccc(C)cc2)nnc1-c1ccncc1	i	-4	-1.9	0.99	168	100	0

item	Structure	HSV augment	PKD1 kinase inh	GALR2 ag	HSV augment primary fold	Insulin prom inh cell count	RGS16-Gao HTS	Insulin prom inh
33	N=C1C(c2ccccc2)=C(O)CN1c1ccccc1	i	2	x	0.95	x	103	x
34	Cc1ccc(-c2nc(CN(Cc3cnn(C)c3)C(C)C)c(C)o2)o1	i	-4	x	1	x	98	x
35	CC(=O)Nc1cccc(-c2nnc(SCC(=O)N3CCCCC3)n2C)c1	i	2	-0.2	0.71	103	100	16
36	Cc1ccc(S(=O)(=O)N2CCC(C(=O)N[C@@H](C)C(=O)NCC3CCCO3)CC2)cc1 (some centres undefined)	i	4	-1.7	0.94	x	99	x
37	COc1ccc(-c2nn(-c3ccccc3)cc2CN2CCCO2)c(F)c1	i	3	x	1.1	x	96	x
38	COc1ccc(-c2noc(CCN3C(=O)c4ccccc4C3=O)n2)cc1OC	i	-4	0.4	0.93	101	98	9
39	CC(=O)Nc1ccc(OCC(=O)c2cc(C)ccc2C)cc1	i	1	-0.8	1	112	103	42
40	Cc1cccc(/N=C/c2nc(-c3ccccc3Br)oc2O)n1	x	7	x	x	111	103	7

item	Structure	HSV augment	PKD1 kinase inh	GALR2 ag	HSV augment primary fold	Insulin prom inh cell count	RGS16-Gao HTS	Insulin prom inh
41	N#Cc1ccccc1NC(=O)CSC1=Nc2ccccc2C2CC=NN12 (centres undefined)	x	3	x	x	120	105	-14
42	Cc1cc(OCC(=O)N(Cc2ccco2)C2CCS(=O)(=O)C2)ccc1Cl (centres undefined)	i	x	x	1	x	102	x
43	CC(=O)Nc1cccc(CNCc2cccc(NC(C)=O)c2)c1	i	3	x	0.81	x	64	x
44	COc1cccc(/C=C/C(=O)Nc2ccc3c(c2)OCCO3)c1	i	-6	x	0.98	62	102	-43
45	COc1ccc(CNC(=O)C(C)OC(=O)C23CC4CC(CC(O)(C4)C2)C3)cc1 (centres undefined)	i	2	0.0	0.98	115	100	20
46	Cc1nn(C)cc1NC(=O)c1cc2nc(-c3ccco3)cc(C(F)(F)F)n2n1	i	-8	x	0.93	x	105	x
47	CCCNC(=S)Nc1ccc(Cl)cc1Cl	i	3	-0.4	1.1	131	99	-107
48	COc1cc(SC)ccc1C(=O)Nc1c(C)cccc1C	i	3	x	0.92	146	101	-54

item	Structure	HSV augment	PKD1 kinase inh	GALR2 ag	HSV augment primary fold	Insulin prom inh cell count	RGS16-Gao HTS	Insulin prom inh
49	CCc1ccccc1N1CC23C=CC(O2)C(C(=O)OC)C3C1=O (centres undefined)	i	8	-1.4	0.97	x	91	x
50	COc1ccccc1CN1CCNC(=O)C1CC(=O)NCCC1=CCCCC1 (centres undefined)	i	-3	x	1	x	107	x
51	CCOC(=O)Cc1csc(NS(=O)(=O)c2ccc(Br)cc2)n1	i	0	x	1	x	96	x
52	CC1(C)OC(=O)C(=NNc2ccccc2[N+](=O)[O-])C(=O)O1	i	x	x	0.96	x	91	x
53	O=C(NCc1cccs1)c1cc2c(s1)CS(=O)(=O)C2	i	-5	-0.8	0.91	123	104	11
54	CCC(=O)Nc1cccc(NC(=O)c2ccc3c(c2)OCCO3)c1	i	x	x	1.1	x	103	x
55	O=C(c1ccc(Cl)c(S(=O)(=O)N2CCc3ccccc3C2)c1)N1CCN(c2ccccc2)CC1	x	-16	-1.4	x	x	103	x
56	CC(C)(C)c1ccc(C2(C)NC(=O)N(CC(=O)Nc3ccc4c(c3)OCO4)C2=O)cc1 (centres undefined)	i	-3	0.3	0.91	89	100	-17

item	Structure	HSV augment	PKD1 kinase inh	GALR2 ag	HSV augment primary fold	Insulin prom inh cell count	RGS16-Gao HTS	Insulin prom inh
57	Cc1ccc(NC(=O)CSc2nnc(-c3ccc(S(=O)(=O)N4CCOCC4)cc3)n2C)cc1	i	-12	0.4	1.1	164	104	-5
58	CCCC(C)NC(=O)c1ccccc1SC (centres undefined)	i	2	x	0.97	95	109	45
59	NC(=NC(=O)c1cccc(C(F)(F)F)c1)c1ccc(C(F)(F)F)cn1	i	x	x	1.2	x	99	x
60	O=c1[nH]c(CN2CCN(C/C=C/c3ccccc3)CC2)nc2cc(Cl)ccc12	i	-3	-1.1	0.83	x	91	x
61	COc1cc(CNC2CCCCCCC2)cc(Br)c1OCC#N	i	-10	0.0	0.84	76	111	-43
62	O=C(CCCN1C(=O)/C(=C\c2ccccc2)SC1=S)Nc1ccccc1O	i	x	x	0.83	x	97	x
63	NC(=O)NC(=O)COC(=O)/C=C/c1cccs1	i	x	x	1.1	x	94	x
64	Cc1ccc(C)c2[nH]c(=O)c(CCNC(=O)c3cccs3)cc12	x	-6	-0.4	x	125	106	12

item	Structure	HSV augment	PKD1 kinase inh	GALR2 ag	HSV augment primary fold	Insulin prom inh cell count	RGS16-Gao HTS	Insulin prom inh
65	O=S(=O)(c1ccccc1)n1nc(-c2ccccc2)nc1NCc1ccco1	i	-6	-1.3	0.85	106	83	35
66	COc1ccc(CCn2ccc(O)c(Cc3ccc(Cl)cc3Cl)c2=O)cc1OC	i	-9	x	0.87	75	98	-89
67	COc1ccc2nc(NC(=O)CSC3=NCCS3)sc2c1	i	10	-2.6	1	138	108	46
68	COc1ccc(OC)c(NC(=O)C(=O)/C=C(\O)c2cc(OC)ccc2OC)c1	i	-5	-2.1	0.96	117	39	-13
69	O=c1cc(-c2ccc(Cl)cc2)[nH]c2ccccc12	i	x	x	0.89	x	89	x
70	Cc1cccc(Oc2nc(-c3ccccn3)nc3ccccc23)c1	i	x	x	0.7	x	95	x
71	CC(C)Oc1ccc(C(CC(=O)O)c2ccc(F)cc2)cc1 (centres undefined)	i	x	x	1	x	101	x
72	O=C1[C@@H]2C(c3cccnc3)=NO[C@@H]2C(=O)N1c1ccc(Br)cc1	i	x	x	1.2	x	95	x
73	CN(C)/C=N/NC(=O)c1ccccc1	i	-1	x	0.94	x	100	x
